Bioassay records as filed in PubChem BioAssay.
Mtb bLac sens: beta-lactam sensitization of Mtb H37Rv, H37Rv; M. tuberculosis H37Rv growth with meropenem, percent inhibition; hits of this screen are not shown here; inhibition, % at 25 µM; 330,000 compounds, 0.27% hits; AID 434955, 2010;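 active = about 74% or more and at least 40 points above the plate without the antibiotic, then above 30% in a dose series; inconclusive = first-round hits that could not be retested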;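 note: growth measured after seven days incubation then overnight dye step; 0% = bacteria only wells and 100% = bacteria with antibiotic; twin plates without the antibiotic show which effects depend on it; some results filed as inactive read as strong as hits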
Arbovirus inh: antivirals against arbovirus infection, primary screen, cell-based, full library, 10K replicate subset | arbovirus infection cell-based antiviral screen | inhibition, % at 10 µM | 200,000 compounds, 0.37% hits | AID 1251, 2008;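 active = inhibition from about 30%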;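 note: bluetongue infection of BSR cells; cell survival read as ATP light after 72 h; 0% = infected wells without compound and 100% = uninfected wells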
YopH PTP inh: YopH tyrosine phosphatase inhibitors, primary screen, biochemical, fluorescence Ex485/Em525. 140,000 compounds, 0.16% hits. YopH tyrosine phosphatase [Yersinia enterocolitica]. inhibition, %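 (about 10 µM by stock and volumes)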;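 active = inhibition of 50% or more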;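 note: controls were vehicle for no effect and minimum signal wells for full effect; inactives centre near -20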
Mtb H37Rv: M. tuberculosis H37Rv growth inhibitors, H37Rv strain (AID 1626). M. tuberculosis H37Rv growth inhibition; higher % means a stronger effect. inhibition, % at 10 µM, or IC50 in µM where a hit was titrated. 220,000 compounds, 0.95% hits;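 active = confirmed in a dose series; inconclusive = inhibition above 80% but not taken into the dose series; inactive = below 80% or under 30% at every dose of the series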;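 note: bacteria incubated seven days before Alamar blue readout; 0% = bacteria only wells and 100% = bacteria with antibiotic wells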
RecA splice inh: Mtb RecA intein splicing inhibitors, primary screen, biochemical, fluorescence, HTS. cell-free RecA intein splicing. inhibition, %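 (about 9 µM by stock and volumes)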. 290,000 compounds, 0.75% hits. AID 2221, 2009; in the data active = inhibition above about 30%; inconclusive = no clear call, values can overlap the other calls;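 note: 0% = vehicle wells and 100% = reference inhibitor control wells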
Target sequence (P9WHJ3 whole entry, looked up, canonical isoform): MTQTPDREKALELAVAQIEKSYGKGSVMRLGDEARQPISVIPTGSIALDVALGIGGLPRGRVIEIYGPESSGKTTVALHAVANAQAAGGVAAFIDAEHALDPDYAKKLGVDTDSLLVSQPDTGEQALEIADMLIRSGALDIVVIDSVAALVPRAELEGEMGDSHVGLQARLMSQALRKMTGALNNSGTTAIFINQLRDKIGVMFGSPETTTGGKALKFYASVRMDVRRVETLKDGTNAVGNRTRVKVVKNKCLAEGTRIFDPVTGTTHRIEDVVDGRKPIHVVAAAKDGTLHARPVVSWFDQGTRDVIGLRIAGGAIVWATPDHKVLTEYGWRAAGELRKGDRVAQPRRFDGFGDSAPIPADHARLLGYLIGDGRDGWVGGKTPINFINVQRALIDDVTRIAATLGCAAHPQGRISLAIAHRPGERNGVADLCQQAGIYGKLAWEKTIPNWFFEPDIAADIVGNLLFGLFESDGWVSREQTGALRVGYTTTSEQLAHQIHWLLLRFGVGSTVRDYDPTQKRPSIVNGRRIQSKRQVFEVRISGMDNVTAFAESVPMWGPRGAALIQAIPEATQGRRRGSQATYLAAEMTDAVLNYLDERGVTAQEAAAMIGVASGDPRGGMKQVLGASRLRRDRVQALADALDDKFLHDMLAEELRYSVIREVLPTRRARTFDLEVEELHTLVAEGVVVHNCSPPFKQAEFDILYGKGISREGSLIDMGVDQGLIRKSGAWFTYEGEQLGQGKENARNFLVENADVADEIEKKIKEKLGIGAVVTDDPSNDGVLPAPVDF
Arbovirus inh repeat: second read-out of Arbovirus inh, no call of its own (marks repeat the call); inhibition, %; measured here: 10K subset replicate screen; many hits read low in the repeat;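 first of two repeat runs on a subset; 0% = infected and 100% = uninfected wells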
* = called active by the depositor; ? = inconclusive; nt = no result given. Only part of the results is shown. The share of hits here may be higher or lower than overall.

SMILES	Mtb bLac sens	Arbovirus inh	YopH PTP inh	Mtb H37Rv	RecA splice inh	others
Cc1ccc(C=C2C(Cl)=C(Cl)C(Cl)=C2Cl)cc1	99.1	nt	nt	64.6%	31.0*
CCCCCCCCCCOC(=O)Cn1c(COc2ccc(C)cc2)[n+](C)c2ccccc21	82.3	nt	nt	nt	51.7*
CC(=O)C1=C(O)C(=O)N(c2ccc(S(=O)(=O)Nc3nccs3)cc2)C1c1ccc([N+](=O)[O-])cc1 (centres undefined)	-3.2	5.3	nt	-0.7%	2.4
COc1ccc(CNC(=O)C(C)N(C)Cc2cccc(F)c2)cc1 (centres undefined)	-1.7	nt	nt	nt	1.8
CN1CCN(C(=S)NCCc2ccccc2)CC1	12.8	2.5	-44.2	8.0%	0.7
CN(Cc1cnn(C)c1)C(=O)c1cc2ccccc2oc1=O	-5.6	6.9	-19.6	-7.0%	0.2
CC(C)CN(C(=O)CCC(=O)OCc1ccc(Cl)cc1Cl)c1c(N)n(CC(C)C)c(=O)[nH]c1=O	0.1	nt	nt	nt	1.8
CCOC(=O)[C@H]1O[C@@H]1C(=O)N[C@@H](CC(C)C)C(=O)NCCC(C)C	-6.0	-1.3	nt	-4.0%	1.7
O=C(CCCN1C(=O)/C(=C\c2ccco2)SC1=S)Nc1cccc2ccccc12	74.0	-9.6	-1.3	?	9.6
O=c1[nH]c(O)c(Cc2ccc3c(c2)OCO3)c(=O)[nH]1	-7.0	nt	nt	-0.4%	-1.4
Cc1ccn(CC(=O)N2CCCC(N3CCN(Cc4ccc5c(c4)OCO5)CC3)C2)n1 (centres undefined)	-9.4	nt	nt	nt	-0.4
O=C(C1CCN(c2ncnc3c2sc2cccc(F)c23)CC1)N1CCCC1	-7.5	nt	nt	5.8%	-1.7
COc1ccc(N2CC(C(=O)N3CCc4ccccc43)CC2=O)cc1 (centres undefined)	-5.8	nt	nt	nt	-0.2
O=C(Nc1cc(Cl)cc(Cl)c1)c1ccno1	-0.4	nt	nt	nt	-2.0
O=C(COC(=O)C1CCCCC1)Nc1ccccc1OC(F)F	14.6	8.3	nt	-7.9%	-0.5
CCN=C1SC(CC(=O)Nc2sc(C)c(C)c2C(=O)OC)C(=O)N1CC (centres undefined)	-2.6	-5.5	-40.8	-8.0%	-0.2
O=C(CNC(=S)N(Cc1ccccc1F)C1CCCCC1)NCC1CCCO1 (centres undefined)	4.9	-7.7	nt	-8.3%	-4.8
Cc1ccc(-n2c(-c3ccccc3)cc(/C=N/NC(=O)CC#N)c2-c2ccccc2)cc1	-1.6	-3.5	nt	2.7%	-1.9
Cc1ccccc1NC(=O)NCCN1CC1	3.5	nt	nt	5.1%	3.2
O=C(CCC(=O)N(CC(=O)NC1CCCCC1)c1ccccc1F)Nc1nccs1	-11.8	nt	nt	nt	-2.5
CCCCCC(=O)Nc1nc(C)c(-c2csc(Nc3cc(Cl)ccc3OC)n2)s1	-1.7	-10.5	-27.1	42.7%	3.0
COc1ccc(C(C(=O)NC2CCCC2)N(CCO)C(=O)Cn2nnc(-c3ccc(C)o3)n2)cc1OC (centres undefined)	-8.7	nt	nt	nt	1.4
O=C(NNS(=O)(=O)c1ccccc1)C1CC(c2cccnc2)=NO1 (centres undefined)	-2.3	10.3	nt	1.0%	-1.1
CC(C)c1ccc(C(=O)NCCCN(C)C)cc1	5.8	-0.5	-15.8	8.1%	0.8
COc1ccc(CCNc2oc(COc3ccccc3F)nc2C#N)cc1OC	-5.0	4.6	-0.1	6.5%	nt
O=C(NC1CCCCCCC1)c1cc(COc2ccc3ncccc3c2)on1	nt	3.8	nt	-0.8%	4.2
O=C(Nc1cc(SCCO)cc([N+](=O)[O-])c1)c1ccco1	-1.3	-0.7	-25.8	0.0%	-1.5
COc1ccccc1NC(=O)c1ccc(S(=O)(=O)NCc2ccco2)cc1	12.6	nt	nt	nt	3.7
Cc1ccc2nsnc2c1S(=O)(=O)NCc1cccnc1	-5.9	3.3	-26.3	-0.9%	2.3
CCC(C)C(NC(=O)c1ccccc1NC(=O)c1ccco1)C(=O)NNC(=O)c1ccncc1 (centres undefined)	-12.5	nt	nt	-17.6%	2.1
CCOc1ccc(C(c2c(O)nc(SC)n(C)c2=O)c2c(O)nc(SC)n(C)c2=O)cc1	10.8	8.0	-14.9	2.6%	-1.0
O=C(c1cccs1)N1CCN(S(=O)(=O)c2ccc(F)cc2)CC1	-4.4	4.4	nt	-6.8%	nt
CCC(C(=O)O)N1C(=O)c2ccccc2C1=O (centres undefined)	-0.1	1.5	-144.7	0.9%	-0.3
Cc1nc(-c2ccc(NC(=O)C3CCCCC3)cc2)cs1	33.4	-0.2	-14.1	33.2%	1.7
CCCc1cc(=O)[nH]c(SCc2nc3ccc([N+](=O)[O-])cc3[nH]2)n1	-8.2	4.2	-49.1	-1.4%	-2.9
CN1C(=O)NC(c2ccc([N+](=O)[O-])cc2)C2=C1CC(C)(C)CC2=O (centres undefined)	-5.5	nt	nt	nt	4.9
Cc1ccc(C(C(=O)Nc2ccc3c(c2)OCO3)N(C)C(=O)Cc2c[nH]c3ccccc23)cc1 (centres undefined)	8.4	-19.9	0.5	15.3%	12.1
COc1ccc(CNC(=O)CCCn2nc(C)c([N+](=O)[O-])c2C)cc1	-2.6	8.2	-22.1	-1.0%	-2.7
CCOC(=O)c1cnc(COc2ccc(OC)cc2)[nH]c1=O	?	nt	nt	69.6%	-0.1
COc1ccc(-c2nn(CCC#N)cc2C(=O)O)cc1	-6.2	4.5	nt	-2.1%	0.3
C=CCN(c1ccccc1)S(=O)(=O)c1cccc(C(=O)NNC(=O)c2ccncc2)c1	-10.9	nt	nt	nt	1.6
C=CCn1c(CNS(=O)(=O)c2ccc(Br)cc2)n[nH]c1=S	-4.2	nt	nt	nt	1.7
CCOC(=O)C1CCN(S(=O)(=O)c2ccc(OC)c(C(=O)N3CCCCC3)c2)CC1	6.1	nt	nt	nt	5.6
CCCOc1ccccc1/C=C1/C(=O)ON=C1C	1.6	nt	nt	nt	-1.0
CCOC(=O)C1CCN(C(=O)CN(c2ccc(OC)c(OC)c2)S(=O)(=O)c2ccccc2)CC1	4.5	6.0	6.5	-6.6%	-0.9	Arbovirus inh repeat=-1.1
CCNC(=O)Cn1cc(C(F)(F)F)cc(Cl)c1=O	-3.2	nt	nt	-5.9%	2.4
O=C(COc1ccc(S(=O)(=O)NC2CCCCC2)cc1)N1CCN(c2cccc(Cl)c2)CC1	-1.0	-7.9	-25.7	2.9%	4.3
CC(C)CNC(=S)NC1CC2CCCC(C1)N2Cc1ccco1 (centres undefined)	3.0	10.0	-13.7	-1.9%	0.0
Cc1cc(S(=O)(=O)NCC2CCCO2)c(C)cc1Br (centres undefined)	0.9	nt	nt	nt	0.6
O=C(CSc1nnnn1-c1ccccc1Cl)Nc1ccc2c(c1)OCCO2	-0.6	-4.2	-25.4	-1.6%	-1.6	Arbovirus inh repeat=1.0

(further entries)
SMILES	Mtb bLac sens	Arbovirus inh	YopH PTP inh	Mtb H37Rv	RecA splice inh	others
Cc1cc(=O)oc2c(C)c3occc3cc12	-4.7	nt	nt	nt	-5.3
O=C(O)c1ccc(CSc2nc3ccccc3[nH]2)cc1	-2.4	nt	nt	nt	-1.6
CCOC(=O)C1CCN(C(=O)C(C)Sc2ccc(Cl)cc2)CC1 (centres undefined)	-8.7	-10.0	-11.6	4.7%	5.2
CC(=O)Nc1ccc(C(=O)n2nc(C)cc2C)cc1	3.3	-1.6	-26.2	-6.2%	-0.9
Cc1ccccc1/C=N/N=C1/NC(=O)CCS1	-10.9	nt	nt	-6.2%	nt
CC(Oc1ccccc1)C(=O)Nc1c2c(nn1-c1ccccc1)CS(=O)C2 (centres undefined)	-14.3	nt	nt	nt	2.1
Cc1cccc(N=C2Sc3nc4c(C)c(C)ccc4cc3CN2CCN2CCOCC2)c1	96.6	3.0	-34.1	-1.1%	23.5
O=S1(=O)CCN2N=C(C3CC3)SC2=N1	-1.7	2.0	nt	-6.4%	-0.7
O=C1C(C=NCc2cccnc2)=C(O)c2ccccc21	nt	-0.8	-18.3	-2.5%	0.3	Arbovirus inh repeat=3.3
COCCNC(=O)Nc1ccc2c(c1)N(C)C(=O)c1ccccc1S2	-8.4	1.7	nt	-9.9%	-2.4

17 compounds out of the list, arranged by molecular weight, low to high:
SMILES	Mtb bLac sens	Arbovirus inh	YopH PTP inh	Mtb H37Rv	RecA splice inh	others
Cc1cc(=O)oc2c(C)c3occc3cc12	-4.7	nt	nt	nt	-5.3
Cc1ccccc1NC(=O)NCCN1CC1	3.5	nt	nt	5.1%	3.2
O=C1C(C=NCc2cccnc2)=C(O)c2ccccc21	nt	-0.8	-18.3	-2.5%	0.3	Arbovirus inh repeat=3.3
O=C(O)c1ccc(CSc2nc3ccccc3[nH]2)cc1	-2.4	nt	nt	nt	-1.6
Cc1nc(-c2ccc(NC(=O)C3CCCCC3)cc2)cs1	33.4	-0.2	-14.1	33.2%	1.7
CCOC(=O)c1cnc(COc2ccc(OC)cc2)[nH]c1=O	?	nt	nt	69.6%	-0.1
O=C(Nc1cc(SCCO)cc([N+](=O)[O-])c1)c1ccco1	-1.3	-0.7	-25.8	0.0%	-1.5
COc1ccc(CNC(=O)CCCn2nc(C)c([N+](=O)[O-])c2C)cc1	-2.6	8.2	-22.1	-1.0%	-2.7
Cc1cc(S(=O)(=O)NCC2CCCO2)c(C)cc1Br (centres undefined)	0.9	nt	nt	nt	0.6
CCOC(=O)C1CCN(C(=O)C(C)Sc2ccc(Cl)cc2)CC1 (centres undefined)	-8.7	-10.0	-11.6	4.7%	5.2
COCCNC(=O)Nc1ccc2c(c1)N(C)C(=O)c1ccccc1S2	-8.4	1.7	nt	-9.9%	-2.4
CC(Oc1ccccc1)C(=O)Nc1c2c(nn1-c1ccccc1)CS(=O)C2 (centres undefined)	-14.3	nt	nt	nt	2.1
O=C(CSc1nnnn1-c1ccccc1Cl)Nc1ccc2c(c1)OCCO2	-0.6	-4.2	-25.4	-1.6%	-1.6	Arbovirus inh repeat=1.0
O=C(CCC(=O)N(CC(=O)NC1CCCCC1)c1ccccc1F)Nc1nccs1	-11.8	nt	nt	nt	-2.5
C=CCN(c1ccccc1)S(=O)(=O)c1cccc(C(=O)NNC(=O)c2ccncc2)c1	-10.9	nt	nt	nt	1.6
CCC(C)C(NC(=O)c1ccccc1NC(=O)c1ccco1)C(=O)NNC(=O)c1ccncc1 (centres undefined)	-12.5	nt	nt	-17.6%	2.1
CCOC(=O)C1CCN(C(=O)CN(c2ccc(OC)c(OC)c2)S(=O)(=O)c2ccccc2)CC1	4.5	6.0	6.5	-6.6%	-0.9	Arbovirus inh repeat=-1.1

Further results
SMILES	Mtb bLac sens	Arbovirus inh	YopH PTP inh	Mtb H37Rv	RecA splice inh	others
CC(=O)c1ccc(N2C(=NC(=O)C3CCCCC3)SC3CS(=O)(=O)CC32)cc1 (centres undefined)	2.8	nt	nt	nt	-1.5
Cc1c(NC(=O)CSCc2ccc(Cl)cc2Cl)cccc1C(=O)O	-3.1	nt	nt	nt	-1.7
Cc1cc(C)c(S(=O)(=O)Nc2cccnc2)c(C)c1	?	-3.3	-15.5	-1.5%	-1.1
C#Cc1ccc([C@@H]2C=C(C(=O)NCc3ccccc3)O[C@H](OCC)[C@H]2CCCO)cc1	19.1	-1.0	nt	-2.5%	8.7
COc1ccccc1N1CCN(C(=O)c2cc(-c3ccc(F)cc3)[nH]c2C)CC1	28.1	nt	nt	nt	2.0
COc1ccc(C(=O)NN)cc1COc1ccc(Br)cc1	-6.0	-36.1	34.4	-4.3%	16.4
CCOc1ccccc1N1CC(C(=O)N(CC)CC(=O)Nc2ccc3c(c2)OCCO3)CC1=O (centres undefined)	2.6	nt	nt	nt	-2.7
O=C(NCCc1ccc([N+](=O)[O-])cc1)c1ccccc1	0.2	nt	nt	10.7%	0.1
O=C(COC(=O)c1cccc([N+](=O)[O-])c1)NCc1cccs1	0.9	5.7	nt	7.0%	-2.1
O=C(NCc1cccs1)C1CCN(S(=O)(=O)c2ccccc2F)CC1	-5.6	nt	nt	3.9%	-2.1
O=C(NCc1ccc2c(c1)OCO2)C1CCC(CNc2c(N3CCCCC3)c(=O)c2=O)CC1 (centres undefined)	-2.9	5.2	-27.7	6.2%	1.1	Arbovirus inh repeat=2.4
COc1ccccc1NS(=O)(=O)c1ccc2ccccc2c1	-2.2	nt	nt	nt	2.7
O=C(c1cc2c(=O)n3ccccc3nc2s1)N1CCN(c2cccc(Cl)c2)CC1	7.3	nt	nt	nt	-2.5
